# High-throughput results: PubChem, several laboratories
# Mtb bLac sens: beta-lactam sensitization of Mtb H37Rv, H37Rv | M. tuberculosis H37Rv growth with meropenem, percent inhibition; hits of this screen are not shown here | inhibition, % at 25 µM | 0.27% of 330,000 active | AID 434955, 2010;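 active means about 74% or more and at least 40 points above the plate without the antibiotic, then above 30% in a dose series; inconclusive means first-round hits that could not be retested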;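 further: growth measured after seven days incubation then overnight dye step; 0% = bacteria only wells and 100% = bacteria with antibiotic; twin plates without the antibiotic show which effects depend on it; some results filed as inactive read as strong as hits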
# Arbovirus inh: antivirals against arbovirus infection, primary screen, cell-based, full library, 10K replicate subset | arbovirus infection cell-based antiviral screen | AID 1251, 2008 | inhibition, % at 10 µM | 0.37% of 200,000 active;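 active means inhibition from about 30%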;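 further: bluetongue infection of BSR cells; cell survival read as ATP light after 72 h; 0% = infected wells without compound and 100% = uninfected wells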
# RecA splice inh: Mtb RecA intein splicing inhibitors, primary screen, biochemical, fluorescence, HTS; Protein RecA (Mycobacterium tuberculosis (strain ATCC 25618 / H37Rv)), P9WHJ3; cell-free RecA intein splicing; inhibition, %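 (about 9 µM by stock and volumes)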; 0.75% of 290,000 active; AID 2221, 2009; in the data active means inhibition above about 30%; inconclusive means no clear call, values can overlap the other calls;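 further: 0% = vehicle wells and 100% = reference inhibitor control wells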
# Target sequence (P9WHJ3 whole entry, looked up, canonical isoform): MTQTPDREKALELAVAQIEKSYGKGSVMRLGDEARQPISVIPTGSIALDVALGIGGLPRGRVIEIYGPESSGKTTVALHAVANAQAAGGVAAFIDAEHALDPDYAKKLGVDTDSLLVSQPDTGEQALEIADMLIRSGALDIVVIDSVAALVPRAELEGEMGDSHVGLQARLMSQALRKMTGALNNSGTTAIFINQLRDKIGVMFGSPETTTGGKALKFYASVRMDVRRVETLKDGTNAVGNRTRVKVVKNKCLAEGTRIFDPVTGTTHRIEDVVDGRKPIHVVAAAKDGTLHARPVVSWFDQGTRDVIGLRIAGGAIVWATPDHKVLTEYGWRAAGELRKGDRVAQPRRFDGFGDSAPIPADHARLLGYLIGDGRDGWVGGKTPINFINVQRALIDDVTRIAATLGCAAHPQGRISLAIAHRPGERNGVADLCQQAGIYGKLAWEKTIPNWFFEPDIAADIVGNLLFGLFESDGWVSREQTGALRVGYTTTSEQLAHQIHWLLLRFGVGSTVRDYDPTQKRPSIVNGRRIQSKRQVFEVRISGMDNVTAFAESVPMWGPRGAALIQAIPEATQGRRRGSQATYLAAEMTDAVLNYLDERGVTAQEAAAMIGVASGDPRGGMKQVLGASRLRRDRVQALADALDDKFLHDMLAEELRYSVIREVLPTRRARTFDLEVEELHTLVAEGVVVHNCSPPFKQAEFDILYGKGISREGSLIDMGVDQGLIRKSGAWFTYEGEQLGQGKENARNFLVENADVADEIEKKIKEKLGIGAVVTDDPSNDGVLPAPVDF
# YopH PTP inh: YopH tyrosine phosphatase inhibitors, primary screen, biochemical, fluorescence Ex485/Em525. AID 898, 2007. 0.16% of 140,000 active. YopH tyrosine phosphatase [Yersinia enterocolitica]. inhibition, %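 (about 10 µM by stock and volumes)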;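 active means inhibition of 50% or more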;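 further: controls were vehicle for no effect and minimum signal wells for full effect; inactives centre near -20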
# Mtb growth: M. tuberculosis H37Rv growth inhibitors, H37Rv strain (AID 1626) | M. tuberculosis H37Rv growth inhibition; higher % means a stronger effect | 0.95% of 220,000 active | inhibition, % at 10 µM; hits with a dose series show IC50 in µM;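 active means confirmed in a dose series; inconclusive means inhibition above 80% but not taken into the dose series; inactive means below 80% or under 30% at every dose of the series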;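 further: bacteria incubated seven days before Alamar blue readout; 0% = bacteria only wells and 100% = bacteria with antibiotic wells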
# Arbovirus inh repeat: further read-out of Arbovirus inh, marked with its call; inhibition, %; measured here: 10K subset replicate screen; many hits read low in the repeat;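 first of two repeat runs on a subset; 0% = infected and 100% = uninfected wells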
# An asterisk follows results filed as active; ? = inconclusive; . = not tested or not shown.
SMILES,Mtb bLac sens,Arbovirus inh,RecA splice inh,YopH PTP inh,Mtb growth,others
O=C(CC1NCCNC1=O)Nc1ccccc1 (stereo unspecified),1.2,-0.1,0.1,.,5.9%,
COc1cc(OC)cc(C2=NC3(CCC(C)CC3)NC2=S)c1 (stereo unspecified),62.0,-10.4,1.8,.,36.8%,
Cc1ccc(N(Cc2ccc(C(=O)Nc3c(C)n(C)n(-c4ccccc4)c3=O)cc2)S(C)(=O)=O)cc1C,-9.5,0.5,2.0,.,1.8%,
Cc1ccc(CN2CCN(Cc3cnc(C)[nH]3)CC2CCO)cc1 (stereo unspecified),-7.2,-2.1,0.5,.,0.7%,
C=CCOc1ccc2ccccc2c1CNn1cn[nH]c1=S,5.8,.,-1.8,.,.,
Nc1ccc(-c2sc(N)nc2-c2ccccc2)cc1,-7.3,-13.6,1.9,7.7,.,
CNC(C)c1ccc(S(N)(=O)=O)cc1 (stereo unspecified),-1.8,2.2,-3.2,.,-1.6%,
CCOC(=O)COC(=O)c1ccc(O)cc1,50.6,-2.0,-0.5,-39.2,-2.3%,Arbovirus inh repeat=-0.2
Cc1cc(C)nc(N/N=C/c2cc(C)n(CC(F)(F)F)c2C)n1,-0.9,19.1,-5.7,.,4.3%,
Cc1nc(Nc2ccc3c(c2)OCCO3)c2oc3ccccc3c2n1,29.4,-7.0,-0.9,1.1,-1.7%,

# The last 2 records of the section above come first, to join the parts.
SMILES,Mtb bLac sens,Arbovirus inh,RecA splice inh,YopH PTP inh,Mtb growth,others
Cc1cc(C)nc(N/N=C/c2cc(C)n(CC(F)(F)F)c2C)n1,-0.9,19.1,-5.7,.,4.3%,
Cc1nc(Nc2ccc3c(c2)OCCO3)c2oc3ccccc3c2n1,29.4,-7.0,-0.9,1.1,-1.7%,
O=c1[nH]c2ccc(NS(=O)(=O)c3ccc([N+](=O)[O-])cc3)cc2[nH]1,-5.7,0.0,-2.1,.,6.9%,
COc1ccc(CCNC(=O)/C(=C/c2cccnc2)NC(=O)c2ccccc2)cc1,7.7,0.4,1.4,-2.6,2.2%,
Cc1ccc2c(c1)CCCN2C(=O)NC1CCCCC1,2.5,4.2,1.5,.,1.9%,
C=C1CCC[C@]2(C)C[C@H]3OC(=O)C(CNCCN(CC)CC)[C@H]3CC12 (stereo partly specified),0.2,.,-6.0,.,.,
CCC(c1nnnn1C(C)(C)C)N1CCN(C2CCCC2)CC1 (stereo unspecified),3.4,3.2,-1.0,-18.4,-10.3%,
Cc1nn(CC(C)C)c2sc(C(=O)NC3CC(C)(C)NC(C)(C)C3)cc12,-0.9,.,1.8,.,.,
CCOC(=O)c1ccccc1NC(=O)c1c(O)[nH]c(=O)[nH]c1=O,71.6,.,0.8,.,10.5%,
CCc1nnc(NC(=O)c2cc(-c3ccccn3)nc3ccc(Br)cc23)s1,36.1,.,2.7,.,.,
CCc1ccc(N(C2C=CS(=O)(=O)C2)S(=O)(=O)c2ccc(C)cc2)cc1 (stereo unspecified),-1.8,.,-1.4,.,0.7%,
COc1cc(OC)cc(C(=O)NC2CCN(Cc3nnnn3Cc3ccc(F)cc3)CC2)c1,9.5,4.7,-0.5,.,2.2%,
Cc1cccc(NC(=O)N2C[C@H]3C[C@@H](C2)c2cccc(=O)n2C3)c1,-3.6,.,-1.1,.,.,
Nc1c2c(nc3ccccc13)CCN(Cc1ccccc1)C2,-1.0,.,-1.8,.,.,
COCc1cc(C)nc2sc(C(=O)N3CCCCC3)c(N)c12,-2.5,-2.0,-1.6,-9.0,1.9%,
Cc1cccc(NC(=S)N2N=CCC2c2ccccc2)c1 (stereo unspecified),-6.4,-2.5,2.8,18.2,-10.8%,
COc1ccc(CN(Cc2cc3cc(OC)c(OC)cc3[nH]c2=O)C(=O)NC2CCCCC2)cc1,0.8,-7.4,.,-1.6,6.5%,
Nc1nc(N)c(N=Nc2ccc(S(N)(=O)=O)cc2)c(=O)[nH]1,-1.1,.,1.2,.,-9.9%,
COc1cccc(CNC(=O)c2ccccc2-c2ccccc2)c1,99.8,.,-0.3,.,.,
O=C(NC(=S)Nc1ccc(N2CCCCC2)cc1)c1ccco1,97.9,6.2,-1.1,-28.2,46.5%,
COc1ccc(C(=O)COc2ccccc2C(=O)Nc2ccccc2)cc1,4.4,-1.8,1.1,.,4.5%,
Cc1cccc(C)c1OCc1nc2ccccc2c(=O)n1/N=C/c1ccc(OCC(=O)O)cc1,0.2,-0.8,-4.6,-17.8,-4.5%,

# Some of these compounds in order of heavy-atom count, lowest first.
SMILES,Mtb bLac sens,Arbovirus inh,RecA splice inh,YopH PTP inh,Mtb growth,others
COCc1cc(C)nc2sc(C(=O)N3CCCCC3)c(N)c12,-2.5,-2.0,-1.6,-9.0,1.9%,
O=C(NC(=S)Nc1ccc(N2CCCCC2)cc1)c1ccco1,97.9,6.2,-1.1,-28.2,46.5%,
COc1cccc(CNC(=O)c2ccccc2-c2ccccc2)c1,99.8,.,-0.3,.,.,
Cc1cccc(C)c1OCc1nc2ccccc2c(=O)n1/N=C/c1ccc(OCC(=O)O)cc1,0.2,-0.8,-4.6,-17.8,-4.5%,

# Further results follow:
SMILES,Mtb bLac sens,Arbovirus inh,RecA splice inh,YopH PTP inh,Mtb growth,others
Cc1ccc(CN2CCN(Cc3ccccc3C(F)(F)F)CC2)cc1,1.6,-7.2,1.0,-7.1,-2.5%,
Cc1ccccc1CN1CCN(C/C=C/c2ccccc2)CC1,2.3,4.6,-0.6,-4.6,11.7%,
COc1cc(/C=C2/C(=N)N3C(c4ccccc4)=CSC3=NC2=O)ccc1OCC(=O)O,23.1,.,-4.7,.,42.7%,
CC(=O)NN=C1CCC(c2ccccc2)CC1 (stereo unspecified),3.6,0.6,-0.8,-14.4,-5.4%,
COc1ccc(N2CCN(C(c3cccs3)C(C)NC(=O)C(=O)N3CCOCC3)CC2)cc1 (stereo unspecified),-3.6,.,-0.9,.,.,
O=C(COc1ncnc2ccccc12)Nc1cc([N+](=O)[O-])ccc1Cl,-9.8,-4.7,-0.4,.,3.0%,
Brc1ccc(-c2csc(/N=C/N3CCCC3)n2)cc1,-0.4,-5.8,3.7,.,64.4%,
O=C(NC1CCCC1)C(c1ccncc1)N(Cc1ccccc1)C(=O)c1ccc(-c2ccccc2)[nH]1 (stereo unspecified),22.9,-30.1,12.2,-24.3,49.1%,
CCCCNC(=O)Cn1c(=O)c2c(ncn2CCC(C)C)n(Cc2ccccc2)c1=O,5.3,.,-0.4,.,.,
N#Cc1ccc(-c2ccc(OCC(O)CN3CCCCC3)cc2)cc1 (stereo unspecified),4.2,.,-1.1,.,.,
Cc1cccc(-c2nnc(-c3ccccc3)o2)c1,9.6,-5.0,.,-43.2,14.8%,Arbovirus inh repeat=-2.3
CCCC(=O)N(Cc1cc(=O)[nH]c2ccccc12)c1cccc(C)c1,?,.,4.7,.,.,
CC(C)C(Nc1ccc(C(F)(F)F)cc1[N+](=O)[O-])C(=O)O (stereo unspecified),3.8,8.6,-2.2,.,0.5%,
COC(=O)c1c(C)oc(C)c1S(=O)(=O)NCc1ccco1,1.5,.,-0.5,.,0.4%,
CCCOC(=O)C1=C(C)OC23OC(N)=C(C#N)C12C(=O)c1ccccc13 (stereo unspecified),-12.5,-19.1,10.3,-7.2,2.4%,
CCCCN(C)C1CCN(C(=S)Nc2ccc(OCC)cc2)CC1,-2.8,2.8,-3.0,.,-6.9%,
COc1ccc(OC)c(NC(=O)CN2CCC(NC(=O)c3ccccc3C)CC2)c1,4.4,.,2.1,.,.,
O=C1CC(=O)N(c2cccc(C(F)(F)F)c2)C(=O)N1,-5.1,.,0.3,.,.,
Fc1ccc(Cn2nnnc2C(c2ccc(F)cc2)N2CC=C(c3ccc(F)cc3)CC2)cc1 (stereo unspecified),-0.4,-3.1,-1.3,-3.2,11.0%,
COc1ccc(OCC(O)CN2CCC(CN3C(=O)c4cccc5cccc(c45)C3=O)CC2)cc1 (stereo unspecified),67.7,.,0.2,.,.,

# Pulled one by one from the list above (2):
SMILES,Mtb bLac sens,Arbovirus inh,RecA splice inh,YopH PTP inh,Mtb growth,others
CCCC(=O)N(Cc1cc(=O)[nH]c2ccccc12)c1cccc(C)c1,?,.,4.7,.,.,
COc1ccc(OCC(O)CN2CCC(CN3C(=O)c4cccc5cccc(c45)C3=O)CC2)cc1 (stereo unspecified),67.7,.,0.2,.,.,

# (list continues)
SMILES,Mtb bLac sens,Arbovirus inh,RecA splice inh,YopH PTP inh,Mtb growth,others
Cc1c(Cl)cccc1Nc1nc(N)nc(CSCCO)n1,.,-8.4,1.4,11.0,-2.9%,
COc1ccc(C(=O)NC(=S)Nc2ccc(S(N)(=O)=O)cc2)cc1,2.3,-6.3,-3.4,.,-0.6%,
Cn1nc([N+](=O)[O-])nc1N1CCN(c2ccc(F)cc2)CC1,-3.8,1.0,-1.3,0.4,4.2%,
CCCC(=O)Nc1nnc(SCC(=O)Nc2ccc3c(c2)OCO3)s1,-3.5,1.3,-1.1,-18.9,5.8%,
Cc1ccc(NCc2n[nH]c(=S)n2Cc2ccccc2)cc1Cl,.,7.0,6.3,.,0.3%,
CCn1c(COc2ccccc2Cl)nnc1SCC(=O)Nc1ncccc1C,-9.0,1.4,4.2,-18.0,3.7%,
O=C(Nc1ccc(C(=O)NN2C(=O)c3ccccc3C2=O)cc1)c1ccccc1,-1.3,0.0,-4.2,.,-1.0%,
C=CCNC(=S)NNc1nc2c(c(=O)[nH]1)C1(CCCC1)Cc1ccccc1-2,5.9,-5.5,2.6,-27.5,5.2%,
COC(=O)CSc1nnc2n(C3CCCCC3)c(=O)c3c4c(sc3n12)CCCC4,2.3,-3.4,0.5,-40.3,9.6%,
COc1cccc(CN2CCN(CCCc3ccccc3)C(CCO)C2)c1O (stereo unspecified),1.3,.,-1.1,.,.,
COc1cc(NC(=O)c2cccc(Cl)c2)c(OC)cc1NC(=O)CN1CCCCC1,.,-10.2,1.2,.,10.8%,
CCN(CC)S(=O)(=O)c1cc(F)ccc1OC,8.7,3.6,.,-9.0,-2.4%,
COc1cc(/C=N/n2nnnc2N)ccc1OCc1c(C)no[n+]1[O-],3.4,3.6,-1.9,-27.4,4.4%,
CCOC(=O)N1CCC(Nc2c(NCCCN3CCN(C4CCCCC4)CC3)c(=O)c2=O)CC1,-2.8,5.4,-0.5,.,-9.4%,
O=C(c1cnn2c(C(F)F)cc(-c3ccccc3)nc12)N1CCOCC1,?,-7.8,1.9,-9.9,-8.0%,
O=c1nc(-c2ccccc2)c2ccccc2[nH]1,-4.9,11.9,.,-37.3,-4.2%,
COc1ccc(/C=N/NC(=O)c2cccnc2)cc1CN1CCCc2ccccc21,-6.7,-3.7,7.7,.,-7.0%,
CSc1ccc(/C=N/n2c(COc3ccccc3)n[nH]c2=S)cc1,?,.,1.8,.,.,
COc1ccc(-c2cc(N3C(=O)Nc4ccccc4N3O)n[nH]2)cc1,-7.0,3.4,4.0,-22.4,14.3%,
Cc1ccc(NC(=O)CSc2nc3ccccc3c3nc4ccccc4n23)cc1,-7.2,-24.4,3.0,-40.4,-3.1%,
O=C1N2CCSC2=NC1(NS(=O)(=O)c1ccccc1)C(F)(F)F (stereo unspecified),6.5,2.1,-5.2,-10.0,-5.8%,
COc1ccc(/C=C/C(=O)c2c(O)n(CCC3=CCCCC3)c(=O)[nH]c2=O)cc1,99.6,0.3,12.9,-21.6,?,
CCOc1ccc(Nc2nc(NCCN3CCOCC3)nc(OC)n2)cc1,6.3,6.0,-1.2,-19.9,8.3%,
COc1cc(O)oc1C=Nc1ccc(Cl)cc1,-5.2,-6.5,.,-15.9,-2.0%,
Cc1cc(OCC(=O)NNC(=S)NC(=O)c2cccs2)ccc1Cl,85.1,.,-2.0,.,.,
CCOC(=O)Cn1nc(C(F)F)c(Br)c1C,-7.4,-2.9,-3.9,.,-8.0%,
Cc1ccc(NC(=O)CSc2nnc(-c3cccnc3)o2)c(C)c1,-12.0,.,0.8,.,.,
O=C(/C=C/c1ccccc1)N1CCOCC1,2.4,.,-1.1,.,.,
COc1ccc(-c2ccc(-c3nc4ccc(C)cn4c3NC3CCCCC3)cc2OC)cc1,16.9,.,-1.8,.,.,
COc1ccc(OCCSc2nc(N)cc(N)n2)cc1,-9.5,6.9,-5.5,-2.3,6.0%,
COc1cc(C(=O)N2CCCC(c3nc(-c4cccs4)no3)C2)cc(OC)c1OC (stereo unspecified),-4.0,-4.0,0.9,35.2,-4.6%,
Cc1cc(C)cc(NC(=S)N2CC(C)OC(C)C2)c1 (stereo unspecified),-0.5,.,-1.1,.,.,
COc1ccc(NCC(=O)N/N=C/C=C/c2ccccc2[N+](=O)[O-])cc1,86.0,-7.1,-0.4,.,56.5%,
Cn1c2ccccc2c(=O)c2cc(C#Cc3ccc(N)cc3)ccc21,11.9,.,-2.6,.,.,

# Only part of the results is shown. The share of hits here may be higher or lower than overall.
